# KSHV LANA nucl – inhibitors of KSHV LANA binding to nucleosomes; z-score (concentration not given with the values); AID 720717; hit rate 0.3% among 51,000; FITC-LANA1-23 / chicken nucleosome fluorescence polarization; hits give low values;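 active = both repeat wells score below -2 in polarization z-score versus plate sample wells, excluding overly bright wells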;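 also: 100 nL library stock added to about 30 µL; numbers are from one replicate; some results filed as inactive read as strong as hits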
#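 Test system: purified chicken nucleosomes with FITC-labelled LANA N-terminal peptide (1-23); Input: 240 nM purified chicken nucleosomes (480 nM peptide binding sites), final; Medium: TEN-BT buffer, pH 7.5; Timing: 10–45 min, room temperature; Technique: fluorescence polarization, 480 nm excitation, 535 nm parallel and perpendicular emission; Replication: duplicates.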
# Ab BasE inh – blocks the Acinetobacter baumannii siderophore enzyme BasE. purified BasE, fluorescence polarization binding displacement. inhibition, % (concentration not given with the values). hit rate 0.1% among 84,000;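 active = both replicates above 25% with normal brightness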;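 also: 0% = negative plate control signal and 100% = positive plate control signal; stock transfer was 100 nL into about 30 µL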
# Starred values were filed as active, the others as inactive; nt = not tested or not shown. This is a subset; the hit share may differ from the screen's.
(1) CCC(Sc1nc(-c2ccc(OC)cc2)nc2c1c(=O)n(C)c(=O)n2C)C(=O)OC (stereo not given)
(2) NC(=O)c1cc(S(=O)(=O)NCC2CCN(Cc3cccc(F)c3)CC2)cs1
(3) N#CSCC(=O)n1c2c(c3ccccc31)CCCC2
(4) CCc1ccc2[nH]c(=O)c(CN(CCN(C)C)C(=O)Nc3ccccc3Cl)cc2c1
(5) O=C(COC(=O)[C@@H]1CCCN1S(=O)(=O)c1ccc(Cl)cc1)NCc1ccc2c(c1)OCO2
(6) O=C(Nc1ccccc1)Nc1ccc(-n2ccc(C(F)(F)F)n2)cc1
(7) COCc1cc(C)[nH]c(=O)c1C(=O)NC12CC3CC(CC(C3)C1)C2
(8) CC(C)NC(=O)c1ccc(CN(Cc2ccccc2)C(=O)Nc2ccc(F)cc2)o1
(9) CC(C)c1nnc(NC(=O)/C=C/c2ccccc2)s1
(10) Cc1cc(C(=O)CN2c3ccccc3CC2C)c(C)n1-c1c(C)n(C)n(-c2ccccc2)c1=O (stereo not given)
screen / no.	1	2	3	4	5	6	7	8	9	10
KSHV LANA nucl	0.06	nt	-0.263	-2.01	nt	nt	-0.955	0.679	0.921	nt
Ab BasE inh	1.8	-3.0	0.8	0.3	1.7	1.1	0.4	-0.4	-3.5	0.5

# By substructure: those above with fluorine
(2) NC(=O)c1cc(S(=O)(=O)NCC2CCN(Cc3cccc(F)c3)CC2)cs1
(6) O=C(Nc1ccccc1)Nc1ccc(-n2ccc(C(F)(F)F)n2)cc1
(8) CC(C)NC(=O)c1ccc(CN(Cc2ccccc2)C(=O)Nc2ccc(F)cc2)o1
screen / no.	2	6	8
KSHV LANA nucl	nt	nt	0.679
Ab BasE inh	-3.0	1.1	-0.4

# Next part:
(11) CCN1CCN(CCNC(=O)c2ccc(CS(=O)c3ccc(Cl)cc3)o2)CC1 (stereo not given)
(12) Cc1ccc(NCc2nnc(SCC(=O)N(Cc3ccccc3)C(C)(C)C)o2)c(C)c1
(13) CCSc1nnc(SCC(=O)N2CC(=O)Nc3ccccc32)s1
(14) N#Cc1ccccc1NC(=S)NCc1ccccc1
(15) O=C1NC(=S)NC(=O)C1=C1C=C(c2ccccc2)N(CCN2CCOCC2)C2=C1CCCC2
(16) COc1cc2c(cc1NC(=S)Nc1ccc3c(c1)OCO3)oc1ccccc12
(17) CC(C)c1cc(C(=O)Nc2c(Cl)cccc2Cl)no1
(18) CSC1=NC2(CCN(C(=O)NCc3ccccc3)CC2)N=C1c1ccccc1
(19) O=C(CC(=O)c1ccc2c(c1)OCCO2)c1ccccc1
(20) O=C(OCc1cc(=O)n2cc(Br)ccc2n1)C1CC(=O)N(CCc2ccccc2)C1 (stereo not given)
screen / no.	11	12	13	14	15	16	17	18	19	20
KSHV LANA nucl	0.411	0.356	nt	nt	-0.781	-0.492	-0.299	nt	0.268	nt
Ab BasE inh	-2.9	1.7	0.3	2.2	3.0	-0.4	2.8	0.2	4.5	-0.4

(21) CSc1nc2nc(C)c(CCC(=O)OCC(=O)Nc3ccc(F)cc3)c(C)n2n1
(22) O=C(CSc1ccc(Cl)cc1)c1ccc[nH]1
(23) N#C/C(=C(/O)CCN1C(=O)c2ccccc2C1=O)c1nc2ccccc2s1
(24) Cc1cc(NC(=O)CCN2C(=O)/C(=C3\SC(=S)N(CCC(=O)Nc4cc(C)on4)C3=O)SC2=S)no1
(25) CCCCNC(=O)c1cc(-c2ccc(F)cc2)[nH]c1C
(26) OC[C@H]1NC[C@@H](O)[C@@H](O)[C@@H]1O
(27) CCOc1cc(C(=O)Nc2ccc(OC)nc2)ccc1OCC(=O)N1CCCCC1
(28) O=C(Nc1ccccc1)Nc1ccc(C(F)(F)F)cn1
(29) CC1CN(/C=C/C(=O)C(F)(F)F)CC(C)O1 (stereo not given)
(30) Cc1ccc(NNC(=S)NCCCN2CCOCC2)c(C)c1
screen / no.	21	22	23	24	25	26	27	28	29	30
KSHV LANA nucl	nt	nt	nt	0.383	2.84	0.289	nt	0.722	nt	nt
Ab BasE inh	-0.2	-4.0	2.0	0.5	2.6	-4.9	-4.9	-0.4	2.6	0.8

(31) O=C(c1cc(C2CC2)nn1-c1ccccc1)N(Cc1ccco1)Cc1cccs1
(32) CCCc1nn2c(=O)cc(COc3ccc(NS(=O)(=O)c4ccc(Cl)cc4)cc3)nc2s1
(33) O=C1NC(=O)C(C(=S)Nc2ccccc2)C(=O)N1
(34) COC(=O)C1CCN(C(=O)c2ccc(OC)cc2)CC1
screen / no.	31	32	33	34
KSHV LANA nucl	nt	0.329	-0.783	0.409
Ab BasE inh	-1.9	-1.8	0.8	nt

# Exported with each value named: part of the list above.
[20] O=C(OCc1cc(=O)n2cc(Br)ccc2n1)C1CC(=O)N(CCc2ccccc2)C1 (stereo not given)
  KSHV LANA nucl: nt	Ab BasE inh: -0.4

[21] CSc1nc2nc(C)c(CCC(=O)OCC(=O)Nc3ccc(F)cc3)c(C)n2n1
  KSHV LANA nucl: nt	Ab BasE inh: -0.2

# Six entries from above, ordered by the value under KSHV LANA nucl, highest first:
no. | SMILES | KSHV LANA nucl
8 | CC(C)NC(=O)c1ccc(CN(Cc2ccccc2)C(=O)Nc2ccc(F)cc2)o1 | 0.679
32 | CCCc1nn2c(=O)cc(COc3ccc(NS(=O)(=O)c4ccc(Cl)cc4)cc3)nc2s1 | 0.329
19 | O=C(CC(=O)c1ccc2c(c1)OCCO2)c1ccccc1 | 0.268
1 | CCC(Sc1nc(-c2ccc(OC)cc2)nc2c1c(=O)n(C)c(=O)n2C)C(=O)OC (stereo not given) | 0.06
3 | N#CSCC(=O)n1c2c(c3ccccc31)CCCC2 | -0.263
15 | O=C1NC(=S)NC(=O)C1=C1C=C(c2ccccc2)N(CCN2CCOCC2)C2=C1CCCC2 | -0.781
